Yeast UUG start – modulators of yeast start codon fidelity, primary screen, whole organism, S. cerevisiae, single point, plate reader. AID 602363, 2012. S. cerevisiae UUG-firefly luciferase reporter, luminescence/redox ratio. 350,000 tested, 0.13% active. activity score, % at 18.7 µM;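 active = replicate mean at a twofold rise or more, about +100% in these data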;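 also: firefly luciferase made from a UUG start codon reports start codon fidelity; reporter light over untreated wells divided by growth signal over untreated wells; some hits fall short of that in this replicate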
MT1-MMP act inh – blockers of MT1-MMP proenzyme processing, primary screen, HT1080 RFP-PRO-GFP cells, GFP/RFP fluorescence; GFP/RFP ratio change, % at 20 µM; 360,000 tested, 0.061% active; Matrix metalloproteinase-14 (Homo sapiens), P50281; GFP/RFP ratio fluorescence, overnight; percent of plate control window, DMSO zero;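 active = GFP/RFP ratio change of at least 30% with cell ATP level not reduced by more than half and red fluorescence within 50% of control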; also: strong numbers were not always called active
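Assay system – RFP-PRO-GFP reporter HT1080 cells · Compound dosing – single dose of 20 µM compound, 1% DMSO final · Incubation – overnight compound exposure at 37 °C · Measure – GFP/RFP fluorescence ratio · Benchmarks – DMSO wells and RFP-L50D-GFP cells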
CSC inhib – cancer stem cell viability inhibitors, primary screen, luminescence. cancer stem cell-like cells viability. inhibition, % at 7.5 µM. 300,000 tested, 1.1% active;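 active = mean at 75% or more and at least half the replicates too; inconclusive = mean and replicates disagree; tested in HMLE shEcad cells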;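 also: 0% = median of negative and 100% = median of positive control wells; the first replicate is given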
Env fusion inh – inhibitors of HIV-1 Env-driven cell-cell fusion, primary screen, HeLa-JRFL effector, CEM21 target cells, luciferase; inhibition, % at 12.3 µM; 360,000 tested, 1.1% active; AID 651610, 2012;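 active = mean replicate inhibition score of at least 50 and every replicate individually at or above 50; inconclusive = only one of the two criteria met; inactive = mean below 50 and not all replicates reaching 50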;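 also: 0% = plate neutral controls and 100% = maraviroc near 300 nM; one replicate is shown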
eIF4H inh – human eIF4H binding inhibitors, primary screen, translation initiation inhibitor project, biochemical, uHTS, fluorescence polarization | Eukaryotic translation initiation factor 4H (Homo sapiens), Q15056 | eIF4H fluorescence polarization binding assay | inhibition, % at 35 µM | 290,000 tested, 0.94% active;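 active = 50% or more with normal probe brightness, or confirmed in later tests; inconclusive = above 50% with abnormal brightness, or retests that disagree; inactive = below 50% or failed in later tests; about a fifth of its hits are not listed in these tables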;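 also: calls also rest on retests at 20 µM and on dose response follow-up; 0% = protein and probe with vehicle and 100% = probe without protein; strong numbers were not always called active; many hits fall short of the cut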
Rce1 inh – yeast Rce1p protease inhibitors, primary screen, biochemical, fluorescence, cell-free homogeneous | CAAX prenyl protease 2 (Saccharomyces cerevisiae (strain ATCC 204508 / S288c)), Q03530 | yeast membranes, quenched prenylated peptide cleavage fluorescence | calls only | 290,000 tested, 0.27% active | AID 2563, 2010;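 active = fall in fluorescence gain of 50% or more versus controls, with final raw signal at or below 3038400; inconclusive = same 50% fall but final raw signal above 3038400; inactive = fall in fluorescence gain under 50%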;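 also: plate controls were neutral control wells for no effect and wells lacking membranes for full effect; tested at 10 µM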
PABP FP inh – PABP poly(A) RNA binding inhibitors, primary screen, biochemical, fluorescence polarization, uHTS | inhibition, % at 35 µM | 290,000 tested, 1% active | AID 2014, 2009;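 active = 50% or more with normal probe brightness, or confirmed in later tests; inconclusive = above 50% with abnormal brightness, or retests that disagree; inactive = below 50% or failed in later tests; about a fifth of its hits are not listed in these tables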;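 also: calls also rest on retests at 20 µM and on dose response follow-up; controls were probe without protein and protein plus probe with vehicle; some compounds called inactive have numbers as strong as hits; many hits fall short of the cut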
Target sequence (P11940 whole entry, looked up): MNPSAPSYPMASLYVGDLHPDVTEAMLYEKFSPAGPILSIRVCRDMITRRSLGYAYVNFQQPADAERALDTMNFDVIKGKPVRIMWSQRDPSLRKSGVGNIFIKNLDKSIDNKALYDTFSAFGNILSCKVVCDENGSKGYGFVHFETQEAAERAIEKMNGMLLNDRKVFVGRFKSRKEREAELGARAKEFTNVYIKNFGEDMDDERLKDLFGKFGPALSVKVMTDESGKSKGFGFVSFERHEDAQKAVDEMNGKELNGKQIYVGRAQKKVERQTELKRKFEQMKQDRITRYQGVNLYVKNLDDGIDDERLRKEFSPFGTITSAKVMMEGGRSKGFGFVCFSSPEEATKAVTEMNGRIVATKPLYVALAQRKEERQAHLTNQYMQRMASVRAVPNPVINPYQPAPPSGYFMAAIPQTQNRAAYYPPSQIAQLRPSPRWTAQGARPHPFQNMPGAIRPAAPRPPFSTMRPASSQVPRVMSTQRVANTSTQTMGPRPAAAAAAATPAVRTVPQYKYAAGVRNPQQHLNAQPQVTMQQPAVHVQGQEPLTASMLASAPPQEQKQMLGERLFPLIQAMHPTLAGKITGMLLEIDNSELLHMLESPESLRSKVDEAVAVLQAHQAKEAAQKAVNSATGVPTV
eIF4H inh retest – also measured in eIF4H inh; calls as there; inhibition, %; compound at 20 µM; confirmation average;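 mean of two retest wells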
PABP FP inh retest – also measured in PABP FP inh; calls as there; inhibition, %; compound at 20 µM; confirmation repeats;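 mean of two retest wells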
MT1-MMP act inh RFP – second read-out of MT1-MMP act inh, no call of its own (marks repeat the call); RFP signal change, %; measured here: RFP expression control read;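 0 = vehicle wells; hits needed this value within 50% of zero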
* marks the source's active call; other numbers are inactive results; i = inactive; ? = inconclusive; . = no result given.

SMILES | Yeast UUG start | MT1-MMP act inh | MT1-MMP act inh RFP | CSC inhib | Env fusion inh | eIF4H inh | Rce1 inh | PABP FP inh | others
CCN(CC)S(=O)(=O)c1cccc(C(=O)NNC(=O)C2=NN(c3ccccc3)C(=O)CC2)c1 | -9 | -2 | -2 | -1 | 4 | -4 | i | -7
COCCN(C(=S)Nc1cccc(C)c1)C(C)c1cccnc1 (configuration not stated) | 0 | -11 | -4 | -10 | 5 | 4 | i | 7
COc1cc(C(=O)NCc2nnc(SCC(=O)NC3CCCCC3)o2)cc(OC)c1OC | 5 | 2 | 3 | -14 | -5 | 2 | i | 15
Cc1ccc(Cl)c(OCC(=O)Nc2cccnc2)c1 | -13 | 1 | 1 | 4 | -70 | -9 | i | 5
Cc1ccc(CNC(=O)CN2C(C)CCCC2C)cc1 (configuration not stated) | . | -1 | 5 | -2 | 1 | 0 | i | -7
S=C(Nc1ccc(Cl)cc1)Nc1ccc2cn[nH]c2c1 | . | 4 | -5 | -8 | -13 | 11 | i | 10
CCOC(=O)c1cc(-c2ccccc2)sc1NC(=O)c1cc(OC)c(OC)c(OC)c1 | -10 | -8 | -6 | 0 | . | -4 | i | 47
OCCCN1CCN(CCCOc2ccccc2-c2ccccc2)CC1 | -4 | 2 | 3 | 26 | -29 | -6 | i | -10
CC(=O)COc1ccc2c(-c3ccccc3)cc(=O)oc2c1C | -3 | -5 | 0 | -10 | -8 | -8 | i | 0
O=C(NNC(=O)c1cc(F)c(F)cc1Cl)c1ccc(NS(=O)(=O)c2cccs2)cc1 | -10 | 0 | 6 | -1 | . | . | . | .
Cn1nc(C(=O)NNC(=O)c2cccc(Cl)c2)c2ccccc2c1=O | -10 | 5 | -1 | -11 | 9 | . | . | .
COc1ccc(F)cc1-c1cc(C(=O)NCc2ccc(F)cc2)[nH]n1 | -13 | 2 | 1 | . | -9 | . | . | .
CCOc1ccc(NC(=O)C2CCN(S(=O)(=O)c3ccc4c(c3)C(C)(C)C(=O)N4C)CC2)cc1 | -20 | 0 | -1 | 23 | 3 | -4 | i | -12
Cc1noc(C)c1C(=O)Nc1ccc2c(c1)CCC2 | 7 | 1 | -1 | -8 | -28 | 1 | i | -3
COCC(=O)NCCc1nc2ccccc2[nH]1 | -12 | 1 | 6 | -9 | . | -3 | i | -2
COc1ccccc1CNc1ccccc1F | . | -3 | 2 | -14 | 17 | -8 | i | 0
CCNC(=O)C1(C)CCCN1Cc1c(F)cccc1F (configuration not stated) | -21 | -1 | 5 | . | -12 | . | . | .
CC1(C)O[C@@H]2C[C@H]3[C@@H]4CCC5=CC(=O)CC[C@]5(C)[C@@]4(F)[C@@H](O)C[C@]3(C)[C@]2(C(=O)CCl)O1 | 14 | -3 | 0 | 4 | i | . | . | .
CCOC(=O)C1=C(CN2CCN(C(=O)c3ccco3)CC2)NC(=O)NC1c1ccc(F)cc1 (configuration not stated) | 5 | -1 | -2 | -11 | -1 | 3 | i | 1
Cc1c(OC(C)C(=O)NCC(O)c2ccccc2)ccc2c3c(c(=O)oc12)CCC3 (configuration not stated) | . | 3 | -2 | 9 | 13 | -11 | i | 7
COc1ccc(/C=C(\NC(=O)c2ccccc2)C(=O)N2CCN(C)CC2)cc1OC | -5 | 2 | 0 | -12 | -10 | -1 | i | 5
Cc1nc2scc(-c3ccccc3)c2c(=O)o1 | -11 | 0 | 0 | -12 | 39 | -7 | i | -15
O=C1NC[C@H](Cc2ccccc2)N(CC2CCN(CCc3ccc(-c4ccccc4)cc3)CC2)C1=O | -3 | 5 | 3 | . | 1 | . | . | .
O=C(Nc1cccc(C(=O)Nc2ccccc2F)c1)c1ccccc1 | -11 | -1 | 2 | -3 | -3 | -5 | i | -12
CC1=C(C(=O)N(C)C)CC(CC(=O)NCCc2ccccn2)C(=O)N1Cc1ccc(F)cc1 (configuration not stated) | 56 | 1 | 5 | . | 4 | . | . | .

Going on with the list:
SMILES | Yeast UUG start | MT1-MMP act inh | MT1-MMP act inh RFP | CSC inhib | Env fusion inh | eIF4H inh | Rce1 inh | PABP FP inh | others
CN1CCN(S(=O)(=O)c2ccc3c(c2)oc(=O)n3C)CC1 | -3 | -21 | 5 | -6 | -12 | ? | i | ?
NN=C1c2cc([N+](=O)[O-])ccc2-c2ccc([N+](=O)[O-])cc21 | . | . | . | . | . | 19 | i | 9
Cc1scc(-c2n[nH]c(=S)n2Cc2ccccc2)c1C | . | -4 | -2 | -17 | 15 | 4 | i | -8
COc1ccc(C(=O)N/C(=C/c2cccnc2)C(=O)N2CCCCCC2)cc1OC | -4 | -4 | -7 | 13 | -19 | -8 | i | 4
CCOC(=O)C1C(=O)OC(C)(C)C1C(CC)C(=O)c1ccccc1 (configuration not stated) | . | -1 | 3 | -13 | -1 | 9 | . | 0
NS(=O)(=O)c1ccc(CCNC(=O)CCCCCNc2nc(=S)[nH]c3ccccc23)cc1 | . | . | . | -9 | -8 | -8 | i | 5
COc1cccc(OC)c1NC(=O)C1CCCN1C(=O)Nc1ccccc1Cl (configuration not stated) | -7 | -1 | -3 | . | -14 | 3 | i | 8
CCn1nc(C(=O)NNC(=O)C2CSC3(C)CCC(=O)N23)c2ccccc2c1=O (configuration not stated) | -5 | -2 | 0 | -11 | . | . | . | .
CCCCn1c(N)c(N(CC(C)C)C(=O)c2ccc(-c3ccc(Cl)cc3)o2)c(=O)[nH]c1=O | -13 | -7 | -2 | 19 | 9 | . | . | .
CC1(C)Cc2nc(NC3CCCCC3)c(C#N)cc2CO1 | . | -3 | -5 | -14 | 8 | 2 | i | -9
CCOC(=O)C1=C(C)NC(=S)N(C(C)=O)C1c1ccc(OC)c(OC)c1 (configuration not stated) | -17 | -3 | 3 | 7 | -27 | -9 | i | -4
COc1ccc(NC(=S)Nc2ccccn2)c(OC)c1 | -15 | -4 | -10 | -6 | -244 | -6 | i | 13
CCCCOc1ccc(-n2nc(C)cc2C)nn1 | -20 | -1 | 1 | 9 | . | 0 | i | -6
O=c1[nH]nc(-c2ccc(NCCO)c([N+](=O)[O-])c2)c2ccccc12 | -9 | 0 | -3 | 4 | 3 | 3 | i | -4
CO[C@H]1CN(C)C(=O)c2cc(NC(=O)C3CCCC3)ccc2OC[C@@H](C)NC[C@H]1C | -9 | -6 | -2 | . | -20 | . | . | .
CCOC(=O)c1nn(-c2ccccc2)c(=O)c2c(NC(C)=O)scc12 | . | 3 | -3 | -10 | 6 | -8 | i | -1
Cc1cc(=O)[nH]c(N/N=C/c2c(C)nn(-c3ccccc3)c2C)n1 | -7 | 2 | 6 | -15 | -7 | -4 | i | 5
Cc1ccccc1-n1c(C)cc(/C=C(\C#N)C(=O)NCC2CCCO2)c1C (configuration not stated) | -11 | -1 | -1 | -20 | -47 | 88* | i | 2.3* | eIF4H inh retest=84*;PABP FP inh retest=52*
Oc1ccc(/C=N/Nc2ccccc2)cc1 | -1 | 1 | 0 | 16 | -4 | -5 | i | -4
CCOC(=O)Cc1nnc(NC(=O)c2ccccc2OC)s1 | -6 | -5 | -1 | -8 | . | -9 | i | 1
Cc1cc(CN(C)C(=O)C2CCC(=O)N(CCc3ccccc3)C2)n[nH]1 (configuration not stated) | -12 | 0 | 2 | -17 | -18 | -8 | i | -9
COc1ccc([N+](=O)[O-])cc1NS(=O)(=O)c1cccc(C(=O)NCCCN2CCCC2=O)c1 | -10 | -1 | 6 | -10 | -4 | . | . | .
COc1ccc(OC)c(NC(=O)CN(C)CC(=O)Nc2ccccc2Cl)c1 | 1 | 0 | 0 | -6 | 25 | -7 | i | -10
CCCc1cc(=O)oc2cc(OCC(=O)NC(Cc3ccc(Cl)cc3)C(=O)O)ccc12 (configuration not stated) | 4 | -2 | -2 | -6 | . | -11 | i | 9
Cc1cc(NC(=O)CN(C)CC(=O)Nc2ccc(Cl)cc2)no1 | -18 | 3 | 3 | -3 | . | . | . | .

5 compounds drawn at random from the list so far, as already listed:
SMILES | Yeast UUG start | MT1-MMP act inh | MT1-MMP act inh RFP | CSC inhib | Env fusion inh | eIF4H inh | Rce1 inh | PABP FP inh | others
O=c1[nH]nc(-c2ccc(NCCO)c([N+](=O)[O-])c2)c2ccccc12 | -9 | 0 | -3 | 4 | 3 | 3 | i | -4
CCOC(=O)Cc1nnc(NC(=O)c2ccccc2OC)s1 | -6 | -5 | -1 | -8 | . | -9 | i | 1
NN=C1c2cc([N+](=O)[O-])ccc2-c2ccc([N+](=O)[O-])cc21 | . | . | . | . | . | 19 | i | 9
Oc1ccc(/C=N/Nc2ccccc2)cc1 | -1 | 1 | 0 | 16 | -4 | -5 | i | -4
CCn1nc(C(=O)NNC(=O)C2CSC3(C)CCC(=O)N23)c2ccccc2c1=O (configuration not stated) | -5 | -2 | 0 | -11 | . | . | . | .

The list goes on.
SMILES | Yeast UUG start | MT1-MMP act inh | MT1-MMP act inh RFP | CSC inhib | Env fusion inh | eIF4H inh | Rce1 inh | PABP FP inh | others
CCOC(=O)Cc1csc(NC(=O)CC(C)(C)C)n1 | -4 | -6 | -8 | -17 | 25 | 0 | i | -2
CCC(C)NC(=O)CC(C)C (configuration not stated) | -10 | 2 | 4 | -15 | 5 | 2 | i | 3
CCOC(=O)N1CCC(N2CCN(CCC(C)C)C(CCO)C2)CC1 (configuration not stated) | -17 | -2 | 3 | 21 | -4 | 15 | i | 3
CCOC(=O)N1CCN(c2c(NCCN3CCCCC3CC)c(=O)c2=O)CC1 (configuration not stated) | -17 | 5 | 8 | -12 | -4 | -6 | i | 0
Cc1cc(C)cc(OC(=O)c2cccnc2)c1 | -7 | -6 | -1 | -17 | 6 | -8 | i | 5
CC1CCCN(S(=O)(=O)c2cccc(C(=O)NCCCN3CCCC3=O)c2)C1 (configuration not stated) | -15 | 1 | 4 | . | -434 | . | . | .
CC(C)N1CCN(Cc2ccsc2)CC1CCO (configuration not stated) | -4 | 2 | 3 | . | -2 | 4 | i | 1
N#Cc1ccc(C(=O)Nc2cc(S(=O)(=O)N3CCOCC3)ccc2N2CCCC2)cc1 | -11 | 2 | 2 | -6 | -12 | . | . | .
O=C(COc1ccc(S(=O)(=O)N2CCCC2)cc1Cl)NCc1ccccn1 | -4 | -1 | -1 | 1 | 11 | -6 | i | 2
Cc1nnc(SCc2cccc(CSc3nnc(C)s3)c2)s1 | -12 | 0 | 3 | 19 | 5 | 0 | i | 0
CCc1ccc(S(=O)(=O)Nc2ccc(N3CCN(C)CC3)cc2)cc1 | -27 | 1 | 1 | 27 | 11 | -10 | i | 2
COc1ccc(NS(=O)(=O)c2ccc(C(=O)N3CCC(C)CC3)cc2)cc1 | 13 | 0 | -20 | -18 | 38 | . | . | .
O=C(/C=C/c1cccs1)NC1CCCC1 | -13 | 0 | 1 | 4 | -8 | -6 | i | 4
O=C(OC(C(=O)NC1CCCCC1)c1ccccc1F)c1ccco1 (configuration not stated) | -6 | -1 | 0 | 3 | 2 | 4 | i | 15
O=C(NCc1cc(C(F)(F)F)cc(C(F)(F)F)c1)C1CC(c2ccccc2[N+](=O)[O-])=NO1 (configuration not stated) | -11 | 3 | -5 | 22 | 22 | 2 | i | -9

From PubChem BioAssay
